# VACV mCherry inh – inhibitors of vaccinia virus infection (mCherry reporter signal); Vaccinia virus mCherry reporter infection, fluorescence; about a quarter of the inactives have no number; Potency, µM (series often up to 36.5 µM), for the others: at the top dose activity change, negative = inhibition, usual class: inhibitors; 0.63% of 310,000 active; AID 720579; active = well fitted inhibition curve with a large enough effect; inconclusive = small, poorly fitted or top-dose-only effect; inactive = no such curve, though single readings can be large or run the other way; tested in A549 cells; further: nearly all actives have a fitted effect of over 35% in size; inactives centre near -10
# Vaccinia Venus – vaccinia inhibition (Venus reporter). Vaccinia virus Venus reporter expression, fluorescence. Potency, µM (doses to about 36.5 µM), for inactives: at the top dose activity change, negative = inhibition, hits mostly inhibitors. 0.46% of 330,000 active. AID 720580; active means well fitted inhibition curve with a large enough effect; inconclusive means small, poorly fitted or top-dose-only effect; inactive means no such curve, though single readings can be large or run the other way; tested in A549 cells; further: nearly all actives have a fitted effect of over 30% in size; inactives centre near -10
# Active calls of the source: *; i = inactive; ? = inconclusive; . = not tested or not shown; [ ] = remark or other dose. On the % scale 0 is the no-effect control and ±100 the full control effect; potency means the concentration at half of the fitted maximal effect.
SMILES,VACV mCherry inh,Vaccinia Venus
O=[N+]([O-])c1cc(-c2n(-c3ccccn3)c3ccccc3[n+]2-c2ccccn2)ccc1Cl,-21.7%,-17.9%
Cc1cc2c(c(=O)n1Cc1cccnc1)C(Cc1ccccc1)C(C#N)=C(N)O2 (configuration not stated),.,-24.9%
CC(=O)Nc1ccc2nc(NC(=O)COc3ccc([N+](=O)[O-])cc3)sc2c1,-12.6%,-4.4%
CCOC(=O)N1CCN(C(=O)CSc2nnc(-c3cc(OC)cc(OC)c3)o2)CC1,.,?
COc1ccccc1CCNC(=O)c1cccn1-c1nnc(N2CCCC2)s1,-6.9%,-3.9%
COc1ccc(CCC(=O)Nc2cc(Cl)ccc2N2CCN(C)CC2)cc1,.,?
CC(=O)CC(=O)Nc1cccc2c1CCCC2,i,-15.9%
O=C(Nc1ccc(NC(=O)c2ccco2)c(Cl)c1)c1ccc2c(c1)OCCO2,-21.5%,?
CCNCC1(c2ccc(OC)c(OC)c2)CCCC1,.,-9.8%
CCC(CC)C(=O)Nc1ccc(OCc2cc(=O)n3ccsc3n2)cc1,4.1%,2.1%
COc1cc2[nH]c(C(=O)NCCc3ccccc3)cc2c(OC)c1OC,-5.9%,-17.2%
COC(=O)CCCC1=CC2=C(c3ccccc3)C(=O)C(C)(OC(=O)C3CCCC3)C(=O)C2=CN1CCN1CCOCC1 (configuration not stated),i,-7.9%
CC1C(=O)N2CCCc3cc(NC(=O)C(=O)NCCN4CCOCC4)cc1c32 (configuration not stated),-12.4%,-7.5%
CCCNC(=O)C1CCCN(S(=O)(=O)c2ccc3c(c2)CC(C)N3C(=O)C2CC2)C1 (configuration not stated),-9.8%,-19.3%
OCC(O)C(O)C(O)C(O)c1nc2ccccc2[nH]1 (configuration not stated),-0.6%,4.9%
CCOc1ccc(NC(=O)CSc2nc(-c3cccc(Cl)c3)nc3c2Cc2c(CO)cnc(C)c2O3)cc1,-0.2%,-5.5%
CCOC(=O)c1cc(-c2ccccc2)sc1NC(=O)CSc1nnc(N)s1,-16.0%,-11.4%
C=CCc1ccccc1OCc1nc2ccc(C)cc2[nH]1,5.2%,14.3%
CC(=O)N1c2ccc(S(=O)(=O)N(C)CC(=O)NCc3ccc(C)cc3)cc2CC1C (configuration not stated),-6.1%,-10.7%
O=C(Nc1ccccc1F)C(Cc1ccccc1)N1Cc2ccccc2C1=O (configuration not stated),-13.4%,-6.5%
CN1CCN(S(=O)(=O)c2ccc(Cc3ccc(S(=O)(=O)N4CCN(C)CC4)cc3)cc2)CC1,-15.5%,-14.5%
CCOc1ccc(C(=O)Nc2c3c(nn2-c2ccc(F)cc2)CS(=O)C3)cc1 (configuration not stated),-7.6%,-10.6%
COc1ccc(C2Nc3ccccc3C(=O)N2NS(=O)(=O)c2ccc(C)cc2)cc1OC (configuration not stated),-18.3%,-13.9%
COc1cc2[nH]c(=O)n(CCCC(=O)NCc3ccccc3Cl)c(=O)c2cc1OC,-20.3%,-2.2%
Cc1cc(C)n2nc(N)c(N=Nc3ccc4c(c3)OCO4)c2n1,-6.3%,-1.1%
COc1ccccc1NC(=O)N1CCN(CCc2ccccc2)CC1,i,-3.7%
COc1ccc(-n2ncc(C(=O)Nc3ccc4c(c3)OCO4)c2C2CCN(C(=O)OC(C)(C)C)CC2)cc1,-18.9%,-9.4%
CN1C(=O)C(O)(CC(=O)c2ccccc2O)c2cc(Br)ccc21 (configuration not stated),9.3%,0.4%
Cc1ccc(S(=O)(=O)NC(=O)C2(C)CCN2C(=O)C2(c3ccc(Cl)cc3)CC2)cc1 (configuration not stated),2.3%,-8.1%
O=S1(=O)CC(O)C(O)CS1 (configuration not stated),-7.0%,5.7%
O=C(Oc1cccc2c(OC(=O)N3CCCC3)cccc12)N1CCCC1,-19.7%,-3.1%
CCCSc1oc(-c2cccs2)nc1S(=O)(=O)c1ccc(Cl)cc1,-15.6%,-12.9%
CN(C)C(=O)OCc1c(-c2ccccc2)ncc2ccccc12,i,-11.3%
CS(=O)(=O)N(CC(=O)NCc1ccc2c(c1)OCO2)c1cccc(Cl)c1,-4.6%,-15.4%
COc1ccc(OC)c(S(=O)(=O)NCc2cn3cccc(C)c3n2)c1,i,-9.8%
O=S(=O)(c1ccccc1)N1N=C(c2ccc(Br)cc2)CC1c1ccco1 (configuration not stated),i[7.34 µM],0.0%[7.34 µM]
CCCC1CC(C)(C(=O)Cn2[nH]c(=O)ccc2=O)OC1=O (configuration not stated),-17.6%,-5.9%
C=C1C(=O)[C@]23C[C@H]1CCC2[C@@]1(C)C(C[C@@H]3O)[C@](C)(C(=O)OC)CC[C@@H]1O (some centres not stated),8.91µM*,?
O=C(NCCCN1CCN(c2cccc(Cl)c2)CC1)c1sc2ncccc2c1-n1cccc1,-22.4%,-17.9%
COC(=O)c1c(NC(=O)CS(=O)(=O)c2ccc(C)cc2)sc2c1CCCCC2,i,-12.7%
COc1ccc(O)c(C(=O)c2coc(=N)c(C(=O)Nc3ccc(SC(F)F)cc3)c2)c1,-28.3%,-19.0%
CC(C)c1ccc2nc3sc(C(=O)N4CCc5ccccc5C4)c(N)c3cc2c1,?,-11.6%
Cc1ccc(C(C(=O)NC2CCCC2)N2CCCC(C)C2)cc1 (configuration not stated),i,-13.6%
OCCN1CCN(C(=S)Nc2ccccc2)CC1,i,-7.6%
COc1cc(NC(=O)CSc2nnc(C)n3c2cc2oc(C)cc23)cc(OC)c1,-3.8%,-7.5%

# A portion taken from the entries so far, for reference:
SMILES,VACV mCherry inh,Vaccinia Venus
CCCC1CC(C)(C(=O)Cn2[nH]c(=O)ccc2=O)OC1=O (configuration not stated),-17.6%,-5.9%
C=C1C(=O)[C@]23C[C@H]1CCC2[C@@]1(C)C(C[C@@H]3O)[C@](C)(C(=O)OC)CC[C@@H]1O (some centres not stated),8.91µM*,?
O=C(NCCCN1CCN(c2cccc(Cl)c2)CC1)c1sc2ncccc2c1-n1cccc1,-22.4%,-17.9%
COC(=O)c1c(NC(=O)CS(=O)(=O)c2ccc(C)cc2)sc2c1CCCCC2,i,-12.7%

# The results go on:
SMILES,VACV mCherry inh,Vaccinia Venus
CCC/C=C/c1ccc(CN2C(C)C(=O)N(Cc3cn(CC4CCCCC4)nn3)CCS2(=O)=O)cc1 (configuration not stated),-3.6%,-16.5%
O=C(c1cccc2ccccc12)C1CCCN(C(=O)CCCn2cncn2)C1 (configuration not stated),-5.6%,-2.1%
Cc1ccc(NS(=O)(=O)c2cc([N+](=O)[O-])ccc2NNC(=S)Nc2cc(C)ccc2C)c(C)c1,-14.3%,-22.8%
CCc1nc(C)ccc1OC(=O)C12CC3CC(CC(C3)C1)C2,-3.6%,0.8%
COC(=O)c1ccccc1NC(=O)c1cc2c(s1)-c1ccccc1OC2,-4.2%,-9.9%
CC(=O)c1ccc(-c2cccc3nccn23)cc1,3.2%,-4.0%
CC(C)C1CC(CCN)(c2ccccc2)CCO1 (configuration not stated),-17.2%,-10.3%
CC(C)CC1(C)NC(=O)N(CC(=O)NC(=O)Nc2ccc3c(c2)OCCO3)C1=O (configuration not stated),.,-18.5%
O=C(C1CCCCC1)N1C[C@H](n2cc(-c3ccc(F)cc3)nn2)[C@@H](O)C[C@@H]1c1ccc(Cl)cc1,-24.6%,?
COCCNc1oc(/C=C/c2cccs2)nc1S(=O)(=O)c1ccccc1,-4.8%,-21.4%
COc1ccc2[nH]c(C(=O)NCCN3CCCCC3)cc2c1,-6.2%[7.34 µM],-10.1%[7.34 µM]
COc1cc(NC(=O)c2cccc(Cl)c2Cl)ccc1NC(=O)c1cc2ccccc2o1,-21.1%,-10.6%
COc1cc(C(=O)NCC(c2cccs2)N2CCOCC2)ccc1OCc1ccccc1 (configuration not stated),i,-14.8%
COc1cccc(N2CC(C(=O)NC3CCCCC3)CC2=O)c1 (configuration not stated),.,-3.8%
CCCCCCCSc1nsc(N)n1,?,?
COC(=O)c1ccccc1OS(=O)(=O)N(C)C,i,-12.1%
CCC(=O)Nc1c(C(=O)N2CCN(c3ccccn3)CC2)cnn1-c1ccc(Cl)cc1,-7.8%,-9.2%
CCN(CC)CCCN=C1N[C@@H](c2cccc(F)c2)C(C(=O)OC)=C(C)N1Cc1ccccc1,?,28.2µM*
CCC(C)n1c(=O)c2sccc2n2c(CCCC(=O)N3CCC(C(N)=O)CC3)nnc12 (configuration not stated),i[7.34 µM],0.0%[7.34 µM]
CC(CCc1ccccc1)NC(=O)c1ccc(Br)cc1 (configuration not stated),-19.5%,-10.2%
COc1ccc(O)c(/C=N/NC(=O)CCC(=O)Nc2ccc(F)cc2)c1,-2.1%,-16.3%
CCCNC(=O)c1onc(CSc2nc3ccccc3[nH]2)c1C(=O)NCCC,i,4.6%
O=C(C[n+]1cccc2ccccc21)c1ccc([N+](=O)[O-])cc1,-15.0%,1.7%
O=C(CCNC(=O)c1ccc([N+](=O)[O-])cc1)NC1CCCc2ccccc21 (configuration not stated),-2.4%,13.0%
Cc1ccc(CNC(=O)CN(C(=O)C2(C)CC(=O)N=C3C=CC=CN32)c2cc(C)ccc2C)cc1 (configuration not stated),-11.3%,-10.2%
CC1(C)Cc2c(cnn2-c2ccc(F)cc2)C(NC(=O)C2CCC2)C1 (configuration not stated),-14.9%,-6.4%
CCCc1nc2oc3cc(OC)ccc3c(=O)c2c(=O)n1CCc1ccccc1,-13.6%,-6.3%
CC1CCN(CCCNC(=O)c2ccc(N3CCCC3=O)cc2)CC1,-6.4%[7.34 µM],-4.2%[7.34 µM]
O=C(Cn1nnc2sc3c(c2c1=O)CCCC3)Nc1ccc(F)c(Cl)c1,-0.9%,-8.8%
CC1(C)C(O)C=C[C@@]2(C)C1CC(=O)O[C@@]1(C)C3=CC(=O)OC(c4ccoc4)[C@]3(C)CCC21 (some centres not stated),-12.7%,-14.9%
CCNC(=O)CCC(N)C(=O)O (configuration not stated),-4.4%,-3.5%
CCc1ccc(NC(=O)CSc2nc(-c3ccc(C)cc3)nc3c2Cc2c(CO)cnc(C)c2O3)cc1,-13.2%,-11.1%
CC(C)CCOc1ccccc1C(N)=O,i,-12.0%
CC(C)CNC(=O)/C=C/C=C/CCCC/C=C/c1ccc2c(c1)OCO2,i,?
Cc1ccc(OCc2cc(=O)n3cc(C)sc3n2)c(NC(=O)c2ccco2)c1,-17.2%,-12.8%
COCC(=O)N1CCC(Oc2ccc(C(=O)NCc3cc(C)n(C)n3)cc2)CC1,i,-14.2%
Cc1ccc(CNC(=O)C(C)n2c(=O)cc(C(F)(F)F)c3c(C)nn(C)c32)cc1 (configuration not stated),-12.8%,-7.5%
COc1ccc2c(C(=O)CN3CC(C)OC(C)C3)c[nH]c2c1 (configuration not stated),.,-4.7%
O=C(COC(=O)/C=C/c1ccc(F)cc1)NCc1ccco1,i,-5.3%
Cc1ccc(Cn2c(=O)n(-c3cc(C)cc(C)c3)c(=O)c3oc4ccccc4c32)cc1,-12.1%,-4.5%
O=C(CCl)Nc1c2c(nn1-c1ccccc1)CSC2,?,-15.3%
O=C(CCc1nnc(CCCc2ccccc2)o1)NC(C1CC1)C1CC1,-1.9%,-7.1%
CSc1cccc(Nc2nc3c(S(=O)(=O)c4ccccc4)nnn3c3ccc(Cl)cc23)c1,-18.4%,-25.6%
COc1ccc(C2/C=C\CN(S(=O)(=O)c3ccc(C)cc3)CC(=O)N2Cc2cccc(F)c2)cc1 (configuration not stated),-20.6%,?
Cn1ccnc1C(=O)c1cccc([N+](=O)[O-])c1,-14.6%,-12.9%
CC(=O)Nc1ccc(S(=O)(=O)N2CCN(Cc3cccs3)CC2)cc1,-7.3%,-7.9%
O=C(c1ccc(F)cc1)N1CCC(C(=O)N2CCN(S(=O)(=O)c3cccc(Cl)c3)CC2)CC1,-23.4%,-16.2%
O=C(NC1CCCC1)c1ccc2c(c1)N(Cc1ccccc1F)C(=O)c1ccccc1S2,-9.9%,-7.3%
CC(C)CNC(=O)c1nc(-c2ccccc2)n(-c2ccccc2)n1,.,-9.7%
CC(=O)Nc1cc(C(=O)N2CCN(C(=O)c3ccco3)CC2)cc2ncn(CCc3ccccn3)c12,-12.0%,-2.2%
Cc1ccc(S(=O)(=O)N2CCCC(C(=O)NCCCN3CCCCC3C)C2)cc1 (configuration not stated),?,-16.1%
COc1cccc(CN2CCC(C(=O)N3CCN(c4ccccc4F)CC3)CC2)c1,-16.7%,-12.6%
COc1ccccc1OC1OC2COC(c3ccco3)OC2C(O)C1NC(C)=O (configuration not stated),i,-11.8%
Cc1ccc(C(=O)COc2ccc3ccc(=O)oc3c2)cc1,-18.3%,-9.7%
CCNC(=O)NC(=O)COC(=O)c1cccc(S(=O)(=O)N2CC3(C)CC2CC(C)(C)C3)c1 (configuration not stated),-10.6%,-8.7%
O=C(NCc1cccs1)Nc1ccc(Cl)cc1,.,-21.5%
O=C(NCCCn1ccnc1)C(=O)NCC1OCCN1S(=O)(=O)c1cc(F)ccc1F (configuration not stated),i,-4.3%
Cc1ccc(S(=O)(=O)NCCC(=O)N2CCCCCC2)cc1,-16.5%,-4.3%
COc1ccc(NC(=O)c2ccc(NC(=O)CCS(=O)(=O)c3cccs3)cc2)cc1Cl,-15.5%,-5.1%
COc1ccc(S(=O)(=O)N2CCN(C(=O)Nc3ccccc3OC)CC2)cc1,-14.8%,-10.4%

# Screens: PubChem, National Center for Advancing Translational Sciences (NCATS)
